Screening results deposited in PubChem BioAssay by National Center for Advancing Translational Sciences (NCATS).
AmpC inh no det: Promiscuous and Specific Inhibitors of AmpC Beta-Lactamase (assay without detergent) | P00811 | AmpC nitrocefin hydrolysis, absorbance 480 nm, no detergent; potencies from a single point are estimates | Potency, µM (series often up to 28.7 µM), for inactives: top-dose activity change, negative = inhibition | hit rate 1.8% among 71,000 | AID 585, 2007; active = falling curve, for most hits resting on a single point; inconclusive = weak or doubtful change; inactive = flat or rising curve; note: % of control where 0% means no effect; about half of the hits show no inhibition at the top dose; a quarter of the inactives give rising signals
Target sequence (P00811 whole entry, looked up): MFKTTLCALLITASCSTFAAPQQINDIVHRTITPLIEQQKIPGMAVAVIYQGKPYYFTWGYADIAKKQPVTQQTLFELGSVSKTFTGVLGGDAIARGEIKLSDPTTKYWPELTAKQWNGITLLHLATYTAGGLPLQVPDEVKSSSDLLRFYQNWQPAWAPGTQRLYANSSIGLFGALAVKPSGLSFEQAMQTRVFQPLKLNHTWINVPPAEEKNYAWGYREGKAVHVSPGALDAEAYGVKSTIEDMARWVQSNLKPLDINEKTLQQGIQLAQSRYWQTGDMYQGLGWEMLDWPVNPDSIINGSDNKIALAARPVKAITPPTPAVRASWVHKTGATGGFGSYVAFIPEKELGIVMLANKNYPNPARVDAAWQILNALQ
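Enzyme, pH 7.0 phosphate. Compound titrations were pre-incubated with AmpC for 15 min at room temperature before nitrocefin (stock 800 uM) addition; product formation was recorded at 480 nm every 20 s for 4 min.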
Numbers without * were called inactive; ? = inconclusive; [ ] = another dose, or the depositor's remark. Potency is the fitted concentration of half-maximal effect.

| compound | AmpC inh no det |
| --- | --- |
| CC(=O)c1ccc(-n2nnnc2SCC(=O)N2CCc3ccccc3C2)cc1 | 7% |
| CN1CCN(c2ccccc2NC(=O)c2ccc(OCc3ccccc3)cc2)CC1 | 93% |
| Cc1ccc(S(=O)(=O)Nc2cc(C(=O)N3CCC4(CC3)OCCO4)ccc2N2CCCCC2)cc1 | 124% |
| COc1cc(OC)cc(-c2nnc(SCC(=O)Nc3cc(C)on3)o2)c1 | 4% |
| CN1CCC2(CC1)CCN(C(=O)c1ccco1)CC2 | 7% |
| O=C(O)c1cc(S(=O)(=O)NCc2ccco2)c(Cl)cc1Cl | -19% |
| CC(C)n1c(SCC(=O)c2ccc3c(c2)OCCO3)nc2c1c(=O)n(C)c(=O)n2C | 135% |
| CCc1ccc(-c2nc(CN3CCC(C(=O)NCCN(CC)c4ccccc4)CC3)c(C)o2)cc1 | 120% |
| COc1ccc(C)cc1NC(=O)C1CCCN(S(=O)(=O)c2cnc[nH]2)C1 (centres undefined) | 3% |
| COc1ccccc1NC(=O)c1ccc(S(=O)(=O)N2CCOCC2)cc1 | 7% |
| Cc1c(C#N)sc2nc(-c3ccccc3)nc(N3CCCC3)c12 | -3% |
| N#Cc1ccsc1NC(=O)COc1ccc(-c2nnco2)cc1 | ? |
| CCCCCCCCCCCCCl | -3% |
| O=C(c1ccc(COc2ccc(F)cc2)o1)n1cccn1 | -7% |
| CCOC(=O)c1ccc(NC(=O)CCc2nc(-c3cccc(C)c3)no2)cc1 | -7% |
| COc1ccc(-c2cn3c(C)c(C(=O)Nc4cccc(NC(C)=O)c4)sc3n2)cc1 | 93% |
| COCCSc1ccccc1C(=O)NCc1ccco1 | 4% |
| CCNC(=O)[C@@H]1O[C@@H](n2cnc3c(NCc4ccccc4)ncnc32)[C@@H](O)[C@H]1O | 2% |
| CCOc1ccc(N(CC(=O)Nc2ccccc2)S(C)(=O)=O)cc1 | 9% |
| CCC(C)NC(=O)C(NS(=O)(=O)c1ccc2c(c1)c(=O)n(C)c(=O)n2C)c1ccccc1 (centres undefined) | 16% |
| C[N+]1(C)[C@@H]2CC[C@H]1CC(OC(=O)[C@@H](CO)c1ccccc1)C2 (some centres undefined) | -15%[12.8 µM] |
| CCOc1ccc(OCC)c(NC(=O)C2C3C=CC(O3)C2C(=O)NCc2ccco2)c1 (centres undefined) | 59% |
| O=C(O)COc1ccc2c(c1)OCCO2 | -2% |
| CS(=O)(=O)N1CCc2cc(S(=O)(=O)Nc3ccc4c(c3)OCCO4)ccc21 | -4% |
| c1ccc2[nH]c(SN3CCOCC3)nc2c1 | -15% |
| CCOC(=O)c1ccc(NC2c3ncccc3C(=O)N2Cc2ccc(F)cc2)cc1 (centres undefined) | 98% |
| CCN(CCCNC(=O)C1CCN(S(=O)(=O)c2cnc[nH]2)CC1)c1ccccc1 | 15% |
| COC(=O)c1cc(S(=O)(=O)N2CCC(C)CC2)ccc1F | 11% |
| CCOC(=O)N1CCC(NC(=O)C2CCN(S(=O)(=O)c3c(C)noc3C)CC2)CC1 | 39% |
| COc1cc(N)c(Cl)cc1C(=O)N[C@@H]1CN2CCC1CC2 | 1% |
| CCOC(=O)C1Cc2cc3c(cc2C1=O)CC(C(=O)OCC)C3=O (centres undefined) | 18% |
| CCC(CC)C(=O)Nc1cccc(C(=O)N2CCOCC2)c1 | -2% |
| COC(=O)c1cc(=O)nc2scc(C)n12 | -7% |
| CC(c1ccccc1)n1cc(C(=O)NCCN2CCOCC2)nn1 (centres undefined) | 0% |
| COCCCNC(CC(=O)Nc1ccccc1C(=O)OC)C(=O)O (centres undefined) | -9% |
| Cc1c(Cl)cccc1N1CC(C(=O)Nc2nccs2)CC1=O (centres undefined) | 15% |
| CC(=O)[C@@H]1CC[C@H]2[C@H]3CC[C@H]4C[C@@H](O)CC[C@]4(C)[C@@H]3C(=O)C[C@@]12C | 45%[12.8 µM] |
| CC(C(=O)N1CCN(C)CC1)N1C(=O)c2ccccc2C1=O (centres undefined) | -7% |
| CCCCC(CC)COP(=O)(OCC(CC)CCCC)OCC(CC)CCCC (centres undefined) | -9% |
| COc1ccc(NC(=O)C2CCN(c3cc(C)nc(-c4ccccc4)n3)CC2)cc1 | 89% |
| CCCOc1ccc(C(CC(=O)O)NS(=O)(=O)c2ccc(NC(C)=O)cc2)cc1 (centres undefined) | -13% |
| CN(CCc1ccccn1)Cc1ccc(Cl)cc1Cl | 35% |
| CCCCC(O)(C(NC=O)C(=O)OC)C(F)(F)F (centres undefined) | 0% |
| COc1ccc(-n2c(Cc3cccn3C)nnc2SCC(=O)N2CCC(C)CC2)cc1 | 144% |
| COc1ccc(OC)c(NS(=O)(=O)c2ccc3c(c2)CCC(=O)N3)c1 | 6% |
| O=C(CCCc1nc(-c2ccccc2)no1)Nc1cccnc1 | 4% |
| CCCN(c1ccc(C(C)C)cc1)S(=O)(=O)c1c(C)noc1C | 15% |
| O=c1ccnc(SCc2ccc(Cl)cc2)[nH]1 | 3%[5.75 µM] |
| CCOC(=O)C1=C(N)OC2=C(C(=O)CCC2)C1c1cccnc1 (centres undefined) | 5% |
| C=CCn1c(=O)c(C(=O)NCCc2ccccc2)c(O)c2ccccc21 | -13% |

More structures follow:
| compound | AmpC inh no det |
| --- | --- |
| CCOC(=O)c1nnn(-c2nonc2N)c1-c1ccccc1 | 4% |
| Cc1noc(C)c1CSc1cc(C)c2ccccc2n1 | 17% |
| CCOC(=O)N1CCC(NC(=O)CCC(=O)c2ccccc2)CC1 | -3% |
| CCc1nn(-c2cc(Cl)ccc2OC)c2c1C(=O)CCC2 | 23% |
| Cn1c(CN2CCCCC2)nc2cc(NC(=O)c3ccc(F)cc3)ccc21 | -3% |
| COc1ccc(S(=O)(=O)N(C)CC(=O)Nc2ccccc2C(F)(F)F)cc1 | 8% |
| CCOc1ccccc1N(CC(=O)Nc1ccccc1C(=O)OC)S(C)(=O)=O | 5% |
| CCOc1cc(N2CCOCC2)c(OCC)cc1NC(=O)CCC1CCCC1 | 105% |
| COc1ccc(NS(=O)(=O)c2cccc(-c3nnc4n3CCCCC4)c2)cc1 | 42% |
| O=C(NCc1ccc(F)cc1)c1ccc(CS(=O)(=O)Cc2ccc(F)cc2)o1 | 3% |
| CN1CCN(C(=O)c2ccc3c(=O)n(CCc4ccccc4)c(=S)[nH]c3c2)CC1 | 94% |
| CN(C)C=Nc1ncc2c([nH]c3ccccc32)c1C#N | 18% |
| OC1(Cc2ccn[nH]2)CCCCC1 | -18% |
| CCOC(=O)c1ccc2c(c1)NC(=O)C(N1CCN(c3ccc(OC)cc3)CC1)S2 (centres undefined) | 1% |
| OCCNc1nc(N2CCN(Cc3ccccc3)CC2)nc2ccccc12 | 60% |
| CCc1ccc(N2CC34C=CC(O3)C(C(=O)OC(C)C)C4C2=O)cc1 (centres undefined) | 3.2µM*[single pt active] |
| CCOC(=O)N1CCN(CCC(=O)c2ccc(Cl)cc2)CC1 | 24% |
| CC1CN=C(N(C(=O)Nc2ccccc2)c2ccc(S(=O)(=O)N3CCOCC3)cc2)S1 (centres undefined) | 60% |
| O=c1oc2ccccc2n1CCc1ccccc1 | -11% |
| Cc1ccc(S(=O)(=O)N2CCOCC2)c(C)c1-n1cnnn1 | 3% |
| CCOC(=O)c1ccc(NC(=O)CSc2nc(C)cc(=O)[nH]2)cc1 | -16% |
| Cc1ccc(S(=O)(=O)N(C)Cc2nc(-c3ccncc3)no2)cc1 | -8% |
| CCOc1ccc(N2CC(C(=O)Nc3ccccc3F)CC2=O)cc1 (centres undefined) | 17% |
| CCOC(=O)c1nn(-c2ccc(OC)cc2)c(=O)c2c(N)scc12 | 12% |
| O=C(c1ccco1)N1CCN(C(=O)C2CCN(S(=O)(=O)c3cccs3)CC2)CC1 | 25% |
| Cn1nnnc1SCCNS(=O)(=O)c1ccccc1 | 0% |
| N#Cc1c(N)oc(-c2ccccc2)c1-c1ccccc1 | -13% |
| CCC(C)(C)NC(=O)C(c1ccccc1F)N(Cc1ccco1)C(=O)c1csnn1 (centres undefined) | 26% |
| Cc1ccc(C)c(SCC(=O)OCC(=O)Nc2ccc(S(=O)(=O)N3CCOCC3)cc2)c1 | 31% |
| COC(=O)C1=C(CSc2nnnn2C)NC(=O)NC1c1cc(C)ccc1C (centres undefined) | 2% |
| CC1=C/C(=N/O)C([C@H]2C=C(C)CC(C)(C)[C@@H]2O)C(C)(C)C1 (some centres undefined) | 30%[5.75 µM] |
| CCCN1c2cccc3cccc(c23)S1(=O)=O | -1% |
| O=C(CSc1nnc(Cc2cccs2)n1Cc1ccco1)Nc1ccc(Br)cc1 | 8% |
| CCOC(=O)NC(=O)CSc1nnc(C)s1 | 2% |
| CC(=O)Nc1nc(-c2ccccc2)nc(C)c1C(C)=O | 7% |
| COc1ccccc1NC(=O)CSc1nnc(C)n1Cc1ccccc1 | 33% |
| Cc1ccc(S(=O)(=O)NCC(=O)N(CC(=O)NC2CCCCC2)Cc2ccco2)cc1 | 23% |
| NCCc1cnc[nH]1 | 3% |
| O=C(c1csnn1)N1CCC2(CC1)CN(c1ccccc1)C2 | 12% |
| Cn1c(=O)c2c(nc(SCCN3CCCCC3)n2Cc2ccccc2)n(C)c1=O | 26% |
| O=C(NCC1COc2ccccc2O1)c1cn(Cc2ccc(F)cc2)nn1 (centres undefined) | -15% |
| COc1ccccc1-c1nnc(NC(=O)C(C)C)s1 | 5% |
| COCc1[nH]nc2c1C1(C(=O)Nc3ccc(F)cc31)C(C#N)=C(N)O2 (centres undefined) | -4% |
| CCOC(=O)c1ccc(NS(=O)(=O)c2cccc3nsnc23)cc1 | -3% |
| COc1ccc(-n2c(=O)c(-c3cn(C)c4ccccc34)nc3cnc(N4CCNCC4)nc32)cc1 | 99% |
| Cc1cn[nH]c1 | 0% |
| C=CCc1c(C)c(C#N)c2nc3ccccc3n2c1NCCN(C)C | 13% |
| O=c1c2cc(N3CCOCC3)ccc2[nH]c(=S)n1CCCN1CCN(c2ccccc2F)CC1 | 47% |
| Cc1ccc(C(C(=O)NC(C)(C)C)N(CC2CCCO2)C(=O)Cn2nnc(-c3ccc(C)o3)n2)cc1 (centres undefined) | 88% |
| Fc1ccc2c(c1)nnn2C1CCN(Cc2ccccc2)CC1 | 23% |

Two compounds drawn at random from those above:
| compound | AmpC inh no det |
| --- | --- |
| COCc1[nH]nc2c1C1(C(=O)Nc3ccc(F)cc31)C(C#N)=C(N)O2 (centres undefined) | -4% |
| C=CCc1c(C)c(C#N)c2nc3ccccc3n2c1NCCN(C)C | 13% |

The listing continues:
| compound | AmpC inh no det |
| --- | --- |
| Clc1cccc2sc(N3CCCCC3)nc12 | 5% |
| CC(C)n1c(N2CCN(CC(=O)NCc3cccs3)CC2)nc2ccccc21 | 100% |
| N=C1C(c2ccccc2)=C(O)CN1Cc1ccco1 | -11% |
| O=C(CSc1nc2ccccc2c(=O)n1CC1CCCO1)NCC1CCCO1 (centres undefined) | 24% |
| CCOC(=O)c1c(C)[nH]c(C(=O)OCC(=O)N2CCN(S(=O)(=O)c3ccccc3)CC2)c1C | 79% |
| COCCCn1c(=NC(=O)c2ccc3c(c2)OCO3)c(C#N)cc2c(=O)n3cccc(C)c3nc21 | 78% |
| O=C(CSc1ncc(-c2ccc(F)cc2)n1Cc1ccco1)Nc1ccc2c(c1)OCO2 | -5% |
| CCn1c(C)c(C(C)=O)c(N2CCC(C(N)=O)CC2)nc1=S | 2% |
| CCN(CC)c1ccc(NC(=O)CN2CCN(CC(=O)Nc3ccc(F)cc3)CC2)cc1 | 99% |
| CCOC(=O)c1c(N)sc(C(=O)N2CCOCC2)c1C | 4% |
| Cc1csc(-c2cnn(-c3ccccc3)c2NC(=O)c2ccccc2)n1 | 63% |
| COc1ccc(C(=O)NC2CC3CCCC(C2)N3CC(C)C)cc1OC (centres undefined) | -9% |
| CC(=O)c1ccc(NC(=O)c2noc3c2CCCCC3)cc1 | 28% |
| CCOC(=O)C(NC(=O)CC)(Nc1ccc(S(=O)(=O)Nc2ncccn2)cc1)C(F)(F)F (centres undefined) | -10% |
| O=C(NC1CCCCC1)c1ccc(S(=O)(=O)N2CCOCC2)cc1 | 6% |
| CC(C)CCNC(=O)CCNS(=O)(=O)c1ccc(Cl)cc1 | 9% |
| O=C(NCc1ccccn1)c1c(O)c2c([nH]c1=O)CCCC2 | 13% |
| Cc1c(Cl)cccc1NC(=O)CC(C(=O)O)C1CCCO1 (centres undefined) | 4% |
| O=C(Nc1ccc(NC(=O)C2CC2)nc1)c1ccco1 | -11% |
| COc1ccc(OC)c(S(=O)(=O)N2c3cc(F)ccc3CCC2C)c1 (centres undefined) | 16% |
| Cc1ccc(C(C)C)c(Oc2nnnn2-c2ccccc2)c1 | 17% |
| CC(=O)N1CCN(C2=Nc3cccc4cccc2c34)CC1 | 0% |
| N#CC1=C(N)OC2=C(C(=O)CCC2)C12CCN(C(=O)OCc1ccccc1)CC2 | 48% |
| CCCc1cc(C(N)=O)c(NC(=O)C2CCCO2)s1 (centres undefined) | -6% |
| c1cncc(-c2cncnc2NC2CCNCC2)c1 | 1% |

Gathered by group, the entries above containing two or more sulfur atoms.
| compound | AmpC inh no det |
| --- | --- |
| CS(=O)(=O)N1CCc2cc(S(=O)(=O)Nc3ccc4c(c3)OCCO4)ccc21 | -4% |
| CC1CN=C(N(C(=O)Nc2ccccc2)c2ccc(S(=O)(=O)N3CCOCC3)cc2)S1 (centres undefined) | 60% |
| O=C(c1ccco1)N1CCN(C(=O)C2CCN(S(=O)(=O)c3cccs3)CC2)CC1 | 25% |
| Cn1nnnc1SCCNS(=O)(=O)c1ccccc1 | 0% |
| Cc1ccc(C)c(SCC(=O)OCC(=O)Nc2ccc(S(=O)(=O)N3CCOCC3)cc2)c1 | 31% |
| O=C(CSc1nnc(Cc2cccs2)n1Cc1ccco1)Nc1ccc(Br)cc1 | 8% |
| CCOC(=O)NC(=O)CSc1nnc(C)s1 | 2% |
| CCOC(=O)c1ccc(NS(=O)(=O)c2cccc3nsnc23)cc1 | -3% |

These rows are one share of the data; count on the stated rates, not on these rows.
